GLA inh pH 4.5 – alpha-galactosidase A (human) inhibition, pH 4.5. AID 1467. 230,000 tested, under 10 active. purified enzyme, 4-MU-alpha-Gal fluorescence, pH 4.5. activity change, negative = inhibition, % at 105 µM. P06280; inconclusive = small, poorly fitted or top-dose-only inhibition, or a rising curve; inactive = flat fitted curve, though single readings scatter; no compound was filed as active;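 note: 0% = full activity with enzyme and -100% = basal without enzyme; dose as in the result columns while the protocol names 77 µM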
Target sequence (P06280 whole entry, looked up): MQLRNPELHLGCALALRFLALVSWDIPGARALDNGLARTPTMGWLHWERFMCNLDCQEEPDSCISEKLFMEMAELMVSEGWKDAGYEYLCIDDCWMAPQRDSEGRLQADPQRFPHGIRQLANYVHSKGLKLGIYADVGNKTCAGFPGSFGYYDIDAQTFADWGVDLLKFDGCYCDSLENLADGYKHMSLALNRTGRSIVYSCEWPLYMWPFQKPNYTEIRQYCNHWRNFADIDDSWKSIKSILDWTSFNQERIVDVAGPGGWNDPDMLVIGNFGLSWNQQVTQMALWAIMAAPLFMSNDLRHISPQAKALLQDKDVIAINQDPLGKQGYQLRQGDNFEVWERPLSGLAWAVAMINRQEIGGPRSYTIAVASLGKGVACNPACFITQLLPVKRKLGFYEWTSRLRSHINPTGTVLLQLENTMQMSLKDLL
Rango release inh – inhibitors of RanGTP-induced Rango-importin beta complex dissociation | Potency, µM (titrated, usually from 46.1 µM), for the others: at the top dose activity change, negative = inhibition | AID 540253 | O95149+P62826 | Biochemical FRET Rango-importin beta, RanGTP-induced dissociation | 0.071% of 340,000 active; active means falling FRET ratio curve, often poorly fitted, with flat reads before Ran was added; inconclusive means other falling curves, or compound fluorescence or quenching; inactive means flat or rising ratio curve;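 note: potency is the fitted concentration of half-maximal effect; % of control where 0% means no effect; nearly all actives have a fitted effect of over 45% in size; -100% = wells without RanGTP and RCC1; the record marks most hits as doubtful in a second field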
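Rango FRET biosensor (snurportin-1 IBB flanked by N-terminal EYFP and C-terminal CFP10) at 0.1 uM, with 0.25 uM importin beta in PBS, 1mM DTT, 0.02% Tween-20, 0.1% BSA. 0.6 uM Ran, 2mM GTP and 0.2 uM RCC1 were then added for 45 min at room temperature. Inhibition read as loss of FRET rise.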
miR-21 reporter – raises the signal of a miR-21 reporter. HeLa miR-21 FLuc reporter, luciferase, 48 h. AID 2288. 340,000 tested, under 10 active. Potency, µM (series often up to 38.3 µM), without a hit: top-dose reporter change, positive = more light; active = well fitted rising curve with a large enough effect; inconclusive = small, poorly fitted or top-dose-only effect; inactive = no such curve, though single readings can be large or run the other way;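 note: % of control where 0% means no effect; miR-21 action dims this reporter so a rising signal means less miR-21 action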
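Compounds were titrated across several concentrations (up to approximately 40 uM) and incubated 48 hours with HeLa miR-21-FLuc reporter cells (miR-21 target sequence downstream of FLuc, endogenous miR-21). Readout was firefly luciferase luminescence after lytic detection reagent.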
Rango complex inh – prevents formation of the Rango-importin beta complex; Q14974; Rango CFP/YFP FRET sensor + importin beta, 45 min; 0.031% of 340,000 active; Potency, µM (series often up to 92.2 µM), inactives show at the highest dose inhibition of complex formation; active = rising FRET ratio curve, often small or poorly fitted; inconclusive = mostly compound fluorescence or quenching in the first reads; inactive = flat curves in all reads;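 note: potency is the fitted concentration of half-maximal effect; 0% = DMSO wells and 100% = buffer wells lacking importin beta; nearly all actives have a fitted effect of over 15% in size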
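FRET biosensor (snurportin 1 IBB flanked by EYFP and cerulean), 50 nM, with compound 5 min, then 0.125 microM importin beta in PBS, 1 mM DTT, 0.02% Tween-20, 0.1% BSA. CFP/YFP ratio read after 45 min at room temperature; pre-read flags interference.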
Active calls of the source: *; ? = inconclusive; · = no result given.

GLA inh pH 4.5,Rango release inh,miR-21 reporter,Rango complex inh,SMILES
·,-3%,·,2.3%,c1csc(-c2nn3c(C4CCCCC4)nnc3s2)c1
-5,-10%,-59%,1.1%,CSc1ccc(-c2nnn(Cc3ccc(C)cc3)n2)cc1
·,-5%,5%,5.1%,CCSc1nnc(NC(=O)CSc2sc3c(O)cc(=O)[nH]c3c2C#N)s1
4,9%,-17%,1.4%,CC1CN(Cc2ccc(Cl)cc2Cl)CC(C)O1 (centres undefined)
5,0%,-4%,-0.5%,CC(C)Nc1nc(Cl)nc(NNC(=O)C(C)Oc2ccccc2)n1 (centres undefined)
6,-10%,-8%,3.9%,CCOc1ccc(Nc2ncnc3c2cnn3-c2ccccc2)cc1
·,-5%,-26%,?,COc1ccc(CNc2ccc3c(c2)CCC3)cc1Br
·,-7%,·,3.2%,O=C(NCCC1CCCCN1S(=O)(=O)c1ccccc1)C(=O)NCc1cccnc1 (centres undefined)
-3,-13%,-26%,?,Cc1ccc(NC(=O)c2cc(C)on2)cc1
10,6%,-29%,1.0%,CCC1(CC)Nc2ccccc2C(=O)N1c1ccc(NC(C)=O)cc1
2,0%,-9%,1.2%,O=C(NN1CCOCC1)c1cnn2c(C(F)F)cc(-c3ccccc3)nc12
1,-6%,-12%,-0.5%,C/C(=N\NC(=O)C(C)Nc1cccc(Cl)c1)c1ccc([N+](=O)[O-])cc1 (centres undefined)
10,23%,-14%,1.4%,O=C(CSc1nnc(Cc2ccccc2)o1)N1CCCC1
8,-13%,0%,0.8%,Cc1nn(CC(=O)Nc2nnc(C(C)C)s2)c(=O)c2ccccc12
·,1%,·,-1.4%,O=C(COC(=O)c1ccccc1[N+](=O)[O-])Nc1nnc(-c2ccccc2)o1
·,-3%,-1%,4.1%,CCc1ccc(CN(C)C(=O)C2CCC(=O)N(CCCN3CCCC3=O)C2)cc1 (centres undefined)
·,-10%,·,-0.6%,CC(=O)Nc1ccc(NC(=O)C(C)OC(=O)c2oc3ccccc3c2C)cc1 (centres undefined)
-4,-1%,-20%,-1.9%,S=c1[nH]ncn2c1cc1oc3ccccc3c12
1,-13%,-1%,-0.5%,CCS(=O)(=O)NCC(c1cccnc1)N1CCN(c2ccc(F)cc2)CC1 (centres undefined)
-7,14%,-2%,0.4%,Cc1cc(C(=O)N2CCOCC2)n(-c2ccccc2)n1
·,-12%,·,-2.9%,O=C(Nc1ccc2[nH]c(=O)[nH]c2c1)c1ccc([N+](=O)[O-])o1
·,0%,-7%,3.6%,O=C(COc1ccc(Br)cc1)OCCN1CCCCC1
-5,-6%,-54%,3.4%,O=C(Nc1ccccn1)C(=O)Nc1ccccn1
·,-1%,-7%,-0.8%,O=c1[nH]cc(-c2ccc(Br)cc2)n1Cc1ccccc1
-6,10%,0%,-1.2%,O=C(Nn1c(Cc2ccccc2)nc2ccccc2c1=O)c1c(O)c2cccc3c2n(c1=O)CCC3

GLA inh pH 4.5,Rango release inh,miR-21 reporter,Rango complex inh,SMILES
-5,3%,6%,-4.3%,NC(=O)CN(N=Nc1cccc([N+](=O)[O-])c1)c1cccc([N+](=O)[O-])c1
5,-2%,-4%,-1.2%,Nc1ccn(Cc2ccccc2F)n1
·,-2%,·,0.3%,O=[N+]([O-])c1ccc(Cl)c(S(=O)(=O)Nc2ccc3cn[nH]c3c2)c1
10,0%,-62%,-6.5%,COc1cc(/C=N/n2cnnc2)ccc1OCc1ccc(C)cc1
·,0%,-1%,0.0%,CC(C)NC(=O)c1ccc2c(c1)N(CC(=O)Nc1ccccc1F)C(=O)C(C)(C)O2
·,-1%,-1%,3.2%,COc1ccc(C(=O)NC2CCN(CC(=O)NCc3ccccc3)CC2)cc1
·,-8%,·,-5.5%,COc1ccc(/C=C/C(=O)Nc2cccc(S(=O)(=O)N3CCOCC3)c2)cc1OC
2,40%,-29%,1.3%,S=C(NCc1ccco1)Nc1ccc(Cl)cc1Cl
-21,-6%,?,2.3%,Clc1cccc(OCCN2CCN(CCOc3cccc(Cl)c3)CC2)c1
-2,5%,15%,0.3%,Cc1ccc(NC(=O)c2cc(S(=O)(=O)NCCc3ccccc3)ccc2F)cc1Cl
-2,-5%,1%,0.3%,COc1ccc(C)cc1S(=O)(=O)Nc1cccc(SC)c1
0,-8%,-11%,-3.2%,C/C(=N\NC(=O)C(=O)Nc1cccc(Cl)c1)c1ccncc1
5,16%,-6%,-2.2%,Cc1noc(C)c1COC(=O)CCC(=O)c1ccc(F)cc1
-22,-16%,-6%,-2.2%,O=c1c(S(=O)(=O)c2ccc(Cl)cc2)cn(Cc2ccccc2)c2ccc(F)cc12
8,0%,0%,-5.0%,CCNC(=O)CCSc1nc(C)cc(C)n1
-7,11%,1%,-0.2%,Cc1nc2sccn2c(=O)c1Cl
·,-1%,·,6.5%,COc1ccc(NS(=O)(=O)c2ccc(O)c(NS(=O)(=O)c3ccc(NC(C)=O)cc3)c2)cc1
·,-3%,·,-2.5%,COc1ccc(NC(=O)COc2cccc(-n3cnnn3)c2)cc1Cl
-6,1%,-3%,1.6%,CC(C)CN(CCC(=O)O)CC(C)C
·,-8%,4%,?,COc1cc(/C=N/NC(=O)c2ccncc2)ccc1OC(=O)c1cccc(Br)c1
-2,2%,?,1.4%,COc1ccc(NC(=O)/C(Cl)=C(/Cl)S(=O)Cc2ccccc2Cl)cn1 (centres undefined)
2,-10%,-8%,-1.6%,CCOC(=O)C1=C(C)NC2=C(C(=O)CCC2)C1c1cccs1 (centres undefined)
8,6%,-2%,1.4%,COc1ccc(N(CC(=O)NC(C)C)S(=O)(=O)c2ccc(NC(C)=O)cc2)cc1
-1,2%,-1%,2.2%,CCC(C)SCC(=O)Nc1ccc(S(=O)(=O)N2CCOCC2)cc1OC (centres undefined)
-15,·,-3%,·,COc1cccc(C2C(C(=O)c3cccs3)=C(O)C(=O)N2CCCn2ccnc2)c1OC (centres undefined)

GLA inh pH 4.5,Rango release inh,miR-21 reporter,Rango complex inh,SMILES
·,-7%,-2%,2.7%,COc1ccc(CNC(=O)C[C@H]2C(=O)N(C3CCCCC3)C[C@@H]2Cc2ccccc2)cc1
-12,0%,-57%,-1.8%,CCN1CCN(c2ccc(NC(=O)c3ccc(F)cc3)cc2Cl)CC1
0,-8%,7%,1.8%,CCOC(=O)c1c(CNc2ccncc2)n(C)c2cc(Br)c(O)cc12
2,24%,-8%,1.2%,CC(Sc1nc(-c2ccc(F)cc2)cs1)C(=O)Nc1ccc(Cl)cn1 (centres undefined)
·,1%,1%,-1.3%,CCC(C)c1ccc(NC(=S)N2CCN(S(C)(=O)=O)CC2)cc1 (centres undefined)
·,-2%,-30%,0.7%,O=C(/C=C/c1cccs1)NCc1ccc2c(c1)OCO2
·,28%,0%,0.3%,CCc1ccc(OCC2Cn3c(nc4c3c(=O)[nH]c(=O)n4C)O2)cc1 (centres undefined)
2,-5%,-50%,-1.8%,Fc1ccccc1CSc1nc2ncc(Br)cc2[nH]1
-22,-5%,-12%,-6.3%,N#Cc1ccc(-c2ccc(F)cc2)nc1Oc1ccc(F)cc1
·,-3%,·,0.9%,CCCCC(=O)Nc1cc(OC)c(NC(=S)Nc2ccc(OC)cc2)cc1OC
-9,?,-6%,-4.8%,COc1ccc(N(CC(O)CN2CCCCC2)S(=O)(=O)c2ccc(C)cc2)cc1 (centres undefined)
0,6%,-20%,?,CC(C)(C)n1ncc2c(=O)n(CC(=O)N3CCc4ccccc43)cnc21
-1,0%,-9%,?,C=CCNc1nc2ccccc2c(=O)[nH]1
·,1%,6%,-0.6%,COc1cc(NC(=O)c2sc3ncn(CC(=O)N4CCCCC4)c(=O)c3c2C)cc(OC)c1OC
·,-13%,·,11%,O=C(Nc1ccc(C(=O)N2CCCC2)cc1)c1cccc(C(F)(F)F)c1
·,4%,·,-3.3%,Cc1ccc(Cl)cc1NC(=O)COC(=O)CSc1ccccc1
-11,17%,29%,-1.1%,Oc1ccccc1Nc1nc(NCc2ccco2)c2ccccc2n1
·,6%,-23%,1.3%,COc1cccc(NC(=O)c2ccnc(N3CCC(C(=O)NCc4ccccc4OC)CC3)c2)c1
-12,7%,21%,5.4%,CCc1ccc(NC(=O)c2ccc(F)c(S(=O)(=O)NCC3COc4ccccc4O3)c2)cc1 (centres undefined)
6,15%,-1%,-1.9%,CCCCn1c(N)c(-c2nc3ccccc3s2)c2c([N+](=O)[O-])nn(C)c(=O)c21
-6,-8%,-12%,-3.2%,O=C(/C=C/c1cccc([N+](=O)[O-])c1)c1cccs1
·,2%,0%,-2.9%,CC1(C)Cc2c(sc(NC(=O)C(=O)N3CCCC3)c2C(N)=O)CO1
1,0%,14%,0.3%,COc1ccccc1N1CCN(C(=O)c2cccc(Oc3ccccc3)c2)CC1
1,?,-5%,-3.6%,Cc1[nH]c2ccc(-c3nnc(SCC(=O)N4CCCc5ccccc54)o3)cc2c1C
-20,·,-41%,·,COc1ccc(C(=O)/C(=C\c2sccc2C)c2nc3ccccc3o2)cc1

GLA inh pH 4.5,Rango release inh,miR-21 reporter,Rango complex inh,SMILES
2,25%,0%,2.4%,C=CC(=O)NC(NC(=O)C=C)c1ccccc1F
3,25%,-12%,3.0%,CCOC(=O)Cc1csc(NC(=O)c2ccc3c(c2)OCO3)n1
·,6%,·,1.7%,O=C1C=C(c2ccc3c(c2)OCO3)C[C@@H](c2ccc(Cl)cc2)C1
7,10%,0%,0.8%,CCNC(=O)NC(=O)COC(=O)CCc1nc(=O)c2ccccc2n1C
0,-12%,1%,0.8%,Cc1c(NS(C)(=O)=O)c(=O)n(-c2ccccc2)n1C
·,10%,·,-0.3%,Cc1ccc(S(=O)(=O)N(Cc2cccc([N+](=O)[O-])c2)C(=O)N2CCN(C)CC2)cc1
-8,-2%,-13%,6.2%,CCN(CC)Cc1c(O)ccc2c(=O)c(-c3ccc4c(c3)OCCO4)coc12
·,6%,·,2.2%,CN(C)c1ccc(CN(CC2CCCO2)C(=O)c2cc3ccccc3o2)cc1 (centres undefined)
·,2%,-13%,0.2%,COCCCn1c(C(=O)N2CC(C)OC(C)C2)cc2c(=O)n3cccc(C)c3nc21 (centres undefined)
3,22%,-3%,-0.3%,N#Cc1c(-c2ccccc2)nc2n(-c3ccccc3)nc(C(=O)Nc3ccccc3)n2c1=O
-2,-13%,9%,0.0%,C=CCn1c(SCc2nc3c(c(=O)[nH]c(=O)n3CCCC)n2CCC)nnc1-c1ccccc1
·,-5%,-7%,1.0%,O=C1Nc2cc(C(=O)NCCCN3CCOCC3)ccc2S/C1=C/c1cccc(Cl)c1
·,4%,-24%,0.8%,O=C(c1cc2ccccc2o1)N1CCN(Cc2ccccc2)CC1
-16,17%,5%,1.3%,CC(C)c1ccccc1NC(=O)CNCCc1ccc(C(F)(F)F)cc1
-7,-4%,-17%,-6.0%,O=C(CSc1nc2ccccc2[nH]1)Nc1ccc(F)cc1
·,-6%,-3%,?,O=C(CC1C(=O)NCCN1Cc1ccccc1C(F)(F)F)NCCN1CCOCC1 (centres undefined)
0,8%,-49%,0.1%,COc1ccc(NC(=O)N/C=C/c2ccccc2)cc1
·,0%,-9%,1.0%,C/C(=N\NC(=O)c1cc(-c2ccc(Cl)s2)[nH]n1)c1ccncc1
-1,12%,-8%,-1.1%,CCCCOc1ccc(CN(C)c2ncnc(N)n2)cc1

6 structures from above, ordered by formula weight, highest first:
GLA inh pH 4.5,Rango release inh,miR-21 reporter,Rango complex inh,SMILES
8,6%,-2%,1.4%,COc1ccc(N(CC(=O)NC(C)C)S(=O)(=O)c2ccc(NC(C)=O)cc2)cc1
1,-6%,-12%,-0.5%,C/C(=N\NC(=O)C(C)Nc1cccc(Cl)c1)c1ccc([N+](=O)[O-])cc1 (centres undefined)
7,10%,0%,0.8%,CCNC(=O)NC(=O)COC(=O)CCc1nc(=O)c2ccccc2n1C
0,6%,-20%,?,CC(C)(C)n1ncc2c(=O)n(CC(=O)N3CCc4ccccc43)cnc21
·,-5%,-26%,?,COc1ccc(CNc2ccc3c(c2)CCC3)cc1Br
5,-2%,-4%,-1.2%,Nc1ccn(Cc2ccccc2F)n1

Screening data deposited in PubChem by National Center for Advancing Translational Sciences (NCATS).

Not all compounds are listed; count on the stated rates, not on these rows.
